# RN4220 kill = growth inhibition of S. aureus RN4220, primary screen, OD600. 16 h. inhibition, % (test concentration not listed). 330,000 compounds, 0.33% hits. AID 1259311, 2017;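 active = z-score of -3 or lower and OD600 up to 0.18 on both plates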;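 note: plate controls were untreated cells for no effect and reference antibiotic for full effect; stock transfer was 100 nL into about 80 µL; one replicate is shown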
# BJeLR viability = MLPCN primary cell-based screen for lethality selective to Ras in HRASV12 cells. 300,000 compounds, 0.17% hits. inhibition, % (no concentration beside the values). BJeLR (HRASV12) viability, CellTiter-Glo ATP luminescence, 48 h; reference of the scale not given here;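 active = replicate mean above 50%; inconclusive = above 50% but judged a plate artefact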;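 note: 50 nL library stock added to about 25 µL; numbers are from one replicate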
# PrP 5UTR inh = inhibition of PrP 5' UTR reporter expression; cell-based PrP 5' UTR mRNA reporter, plate reader; inhibition, % (concentration not given with the values); 340,000 compounds, 0.35% hits;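 active = every replicate at 50% or more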;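 note: 0 = median of the neutral control wells; tested in H4 reporter cells; numbers are from one replicate; inactives centre near -14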
# Autofluor counter = counter-screen for toxin protease inhibitors: compound fluorescence; fluorescence intensity (no concentration beside the values); 360,000 compounds, 3.1% hits; compound autofluorescence counterscreen, microsphere flow cytometry; active compounds read high; AID 624483;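 active = at least 3 SD above the mean of all compounds, about 16000 in these data; inconclusive = too few beads counted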;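 note: 100 nL of 1 mM stock went into each well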
# Mtb hypoxia inh = PubChem AID 1159583; M. tuberculosis hypoxia-regulated fluorescent reporter, fluorescence; fluorescence inhibition, % (test concentration not listed); 300,000 compounds, 0.1% hits;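 active = 35 to 45% if threefold the growth effect, above 45% if 1.5-fold the growth effect; inactive = the rest, general growth blockers included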;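 note: wells of about 50 µL received 100 nL stock; 0% = vehicle wells and 100% = reference inhibitor wells; whole bacteria with a GFP reporter of the hypoxia response; strong numbers were not always called active; many hits fall short of the cut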
# Sa ugtP lethal = growth inhibition of ugtP-null S. aureus, primary screen, RN4220 ugtP deletion, OD600; 16 h; some inactives read as strong as hits; growth inhibition, % (concentration not given with the values); 330,000 compounds, 0.54% hits; AID 1259309, 2017;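 active = z-score under -3 and OD600 up to 0.15 on both plates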;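 note: plate controls were untreated wells for no effect and antibiotic for full effect; wells of about 80 µL received 100 nL stock; the first replicate is given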
# Mtb hypoxia inh growth = recorded beside Mtb hypoxia inh, whose call it bears; growth inhibition, %; measured here: M. tuberculosis growth (absorbance);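 0% = vehicle and 100% = reference antibiotic; read after six days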
# Starred values were filed as active, the others as inactive; ? = inconclusive; . = not tested or not shown; & = joins results of further samples.
SMILES,RN4220 kill,BJeLR viability,PrP 5UTR inh,Autofluor counter,Mtb hypoxia inh,Mtb hypoxia inh growth,Sa ugtP lethal
CN(C(=O)c1ccc(NC(=O)Cc2cccc(NC(=O)C3CCCN(C(=O)C4CCCC4)C3)c2)cc1)C1CCCC1 (configuration not stated),1.0,.,5,3951,4,10,4
COc1cc(C)nc(Nc2nc(C)c(C(C)=O)s2)n1,3.5,6,-3,4508,3,6,-3
COC(=O)c1[nH]c2ccc(C)cc2c1NC(=O)Oc1ccccc1,3.1,6,-12,3440,.,.,7
C=CCC(CC=C)(C(N)=O)c1ccccc1,5.9,-4,-10,4385,14,5,5
CCCC(O)(CCC)C(=O)NN(C(=O)CCl)c1ccccc1,1.6,5,-23,2631,21,17,3
Cc1ccc(NC(=O)c2cc(-c3cccs3)on2)cc1C,-0.6,-5,-64,3863,3,5,11
Cc1nc(C(=O)Nc2ccc(Cl)cc2)nn1-c1ccc([N+](=O)[O-])cc1,7.1,1,-9,8658,1,2,2
CN(CC(=O)Nc1cccc(F)c1)C(=O)c1cccnc1Sc1ccccc1,6.7,-4,-6,?,-1,8,-5
Cn1c(NC(=O)C2CCCO2)cc(=O)n(C)c1=O (configuration not stated),4.7,1,-15,9404,-5,2,3
Cn1ncc(Cl)c1C(=O)N1CCN(C(=O)c2ccco2)CC1,0.4,-5,-14,2235,6,-6,3
O=C(c1ccc(F)cc1)c1c[nH]c(C(=O)NCCCN2CCOCC2)c1,2.0,-1,-10,5926,-5,6,0
O=C(OCC(=O)c1c[nH]c2ccccc12)c1ccc([N+](=O)[O-])s1,85,-5,-28,2184,14,10,101*
Cc1cccc(NC(=O)CNC(=O)CSc2nc(N)cc(N)n2)c1C,4.6,.,-7,?,5,-3,4
N#C/C(=C/Nc1ccccc1)c1ccsc1,17,5,-46,2483,3,4,9
CS(=O)(=O)c1nncn1-c1ccccc1,1.6,3,-6,3073,12,10,2
CC(NC(=O)C(=O)N1CCCCC1)C(c1cccs1)N1CCN(C)CC1 (configuration not stated),-1.0,-3,-9,4086,2,-4,-1
COc1ccc(-c2csc3ncnc(N4CCN(c5ccccc5[N+](=O)[O-])CC4)c23)cc1,-3.0,9,13,4615,-4,0,-12
CC1(C)CC(CCN(Cc2ccccc2)C(=O)c2ccco2)(c2ccccc2)CCO1 (configuration not stated),0.5,0,3,2446,3,1,19
O=C(CSc1nnc(CNC(=O)c2ccccc2F)o1)c1ccc(Cl)cc1,2.4,-5,-16,4499,.,.,-6
Cc1ccc(C(C)C)c(OCC(=O)NNC(=O)Nc2ccccc2)c1,-0.4,5,-25,3610,8,-3,0
Cc1nnc(Nc2ccc3c(c2)ncn3C)c2ccccc12,3.6,-7,-32,9124,15,7,-2
CC(C)(C)NC(=O)NC(=O)CSc1nnc(COc2ccccc2Cl)o1,8.3,-1,-30,3298,5,3,2
C=CCN1CCC2(C)c3cc(O)ccc3CC1C2C (configuration not stated),7.0,2,-12,5543,-5,0,-3
CCN1CCN(c2ncnc3c2cnn3-c2ccc(C)cc2C)CC1,-0.8,-3,-35,5497,12,13,9
Cc1ccc(-n2c(-c3cnccn3)n[nH]c2=S)c(Br)c1,0.5,-3,-23,3903,8,2,4
CNc1ccc2oc(C[C@H]3O[C@@]4(CC[C@H]3C)O[C@H]([C@H](C)C(=O)c3ccc[nH]3)[C@H](C)C[C@H]4C)nc2c1C(=O)O,.,31,6,5962,.,.,.
CCOC(=O)C1CCCN(C(=O)c2ccc(S(=O)(=O)N3CCOCC3)cc2)C1 (configuration not stated),-0.3,.,-18,4151,0,-4,-1
CCOc1ccc(CN2CCNC(=O)C2CC(=O)NCCCn2ccnc2)cc1 (configuration not stated),-4.4,0,-7,2399,3,1,-10
Cn1c(C(=O)O)cc2c(=O)n3ccccc3nc21,2.9,-12,6,3660,0,8,14
O=C1N=C2SCCN2/C1=C\c1ccc(Cl)cc1,-14,5,-27,3853,-4,0,-1
CCOc1ccc(-n2c(=S)sc3c(=O)[nH]c(SCC(=O)NC(C)CC)nc32)cc1 (configuration not stated),2.9,1,-9,7977,-2,-2,-3
Cc1nn(Cc2ccccc2)c(Cl)c1C(=O)NCc1ccc(C)n1C,8.4,1,-17,19508*,10,13,-12
NNC(=O)c1nn(-c2ccc(Cl)cc2)ccc1=O,5.9,-3,2,23538*,12,11,8
O=C1NC2(CCCCC2)C(=O)N1CC(=O)N(Cc1ccccc1)c1ccccc1,.,-4,-9,4485,.,.,.
Cc1cc(C)c(OCCCCCn2ccnc2)c(C)c1,7.3,3,-17,4063,.,.,14
COc1ccc(CNC(=O)CN2CCN(S(=O)(=O)c3cc(Br)ccc3Br)CC2)cc1OC,2.3,.,-7,?,-2,-10,5
O=C(c1ccc(SCc2ccco2)c([N+](=O)[O-])c1)N1CCOCC1,14,4,-14,4072,6,6,8
COc1ccc(OC)c2[nH]c(=O)c(CCNC(=O)c3ccc(Br)o3)cc12,3.2,8,-79,7247,10,-2,-7
CCN(CC)C(=O)Cn1cc(C(=O)C(=O)NCc2ccco2)c2ccccc21,1.0,3,-9,4536,7,2,1
CCc1ccc(-c2nn[nH]n2)cc1,6.0,-7,-12,7860,19,7,0
Cc1cc(C)c(C)c(S(=O)(=O)N2CCN(C(=O)C3CSC4(C)CCC(=O)N34)CC2)c1C (configuration not stated),1.7,-1,-19,5704,-3,0,12
CCOC(=O)CNC(=O)CSc1nc2cccnc2n1C,-0.3,0,-17,4765,.,.,4
CSCCC(NS(=O)(=O)c1ccc(Cl)cc1)C(=O)OCC(=O)NC12CC3CC(CC(C3)C1)C2 (configuration not stated),8.3,0,4,3689,8,-8,-2
Cc1cccc(C=NNc2cn[nH]c(=O)c2Cl)c1,7.8,.,.,.,2,2,-5
CSCc1cc(N2CCOCC2)nc(-c2ccccc2)n1,-0.5,-1,-12,2623,-1,-2,2
O=C(CNc1ccc2ccccc2c1)N/N=C/C=C/c1cccc([N+](=O)[O-])c1,.,-16,-12,2112,.,.,.
COC(=O)C1=C(c2ccc(F)cc2OCc2ccccc2)CC2CCC1N2C(=O)NCc1ccc2[nH]ccc2c1 (configuration not stated),-8.1,.,.,.,9,10,21
N=C1/C(=C\c2ccc(OC(=O)c3ccco3)cc2)C(=O)N=C2SC(N3CCCCC3)=NN12,5.6,8,-16,4468,10,10,7
O=C(CCC1CCCC1)Nc1cc(Cl)ccc1N1CCOCC1,-2.6,.,-19,3668,-5,-3,-5
COc1ccc(CCN(C(=O)c2ccc(F)cc2)C2=CC3CCC(C2)N3C)cc1OC (configuration not stated),-1.3,-5,-15,2570,.,.,-3

# For reference, part of the list above:
SMILES,RN4220 kill,BJeLR viability,PrP 5UTR inh,Autofluor counter,Mtb hypoxia inh,Mtb hypoxia inh growth,Sa ugtP lethal
Cc1cc(C)c(C)c(S(=O)(=O)N2CCN(C(=O)C3CSC4(C)CCC(=O)N34)CC2)c1C (configuration not stated),1.7,-1,-19,5704,-3,0,12
CCOC(=O)CNC(=O)CSc1nc2cccnc2n1C,-0.3,0,-17,4765,.,.,4
CSCCC(NS(=O)(=O)c1ccc(Cl)cc1)C(=O)OCC(=O)NC12CC3CC(CC(C3)C1)C2 (configuration not stated),8.3,0,4,3689,8,-8,-2
Cc1cccc(C=NNc2cn[nH]c(=O)c2Cl)c1,7.8,.,.,.,2,2,-5

# Remaining list, next part
SMILES,RN4220 kill,BJeLR viability,PrP 5UTR inh,Autofluor counter,Mtb hypoxia inh,Mtb hypoxia inh growth,Sa ugtP lethal
c1ccc(-c2nnc(-c3ccco3)n2-c2ccccc2)cc1,6.0,-13,-30,4185,14,6,10
CC(=O)C(=NNc1ccccc1)N1CCOCC1,-0.7,.,.,.,5,5,2
CC(Sc1nncn1C)C(=O)Nc1ccc(N2CCCCC2)cc1 (configuration not stated),4.9,.,-15,4818,10,-1,6
CCCOc1ccc(C(=O)Nc2ccc(S(=O)(=O)NC3=NCCCCC3)cc2)cc1,1.3,4,-11,.,2,2,4
Cc1ccc(NC(=O)C2CC2C)c(Cl)c1 (configuration not stated),4.6,2,-28,4052,12,7,-2
O=C(CNC(=O)c1ccc(Cl)cc1)NCCCn1ccnc1,3.8,-8,-10,9506,4,5,1
COC(=O)/C(=C\c1cccnc1)NC(=O)c1ccc(OCc2ccccc2)cc1,3.3,-10,0,4603,4,-3,2
CN(CC(=O)NCc1cccnc1)S(=O)(=O)c1ccc(F)cc1,5.2,-17,7,4377,-5,-5,1
N=c1sccn1CC(=O)Nc1ccc(Cl)c(S(=O)(=O)N2CCOCC2)c1,1.1,6,-1,5372,.,.,5
Cc1cc(Cl)nc(SCC(=O)c2ccccc2)n1,26,-7,-28,2783,2,8,26
CCN1CCN(CC(=O)NN=Cc2ccc(F)cc2F)CC1,-1.4,.,.,.,-10,0,-2
COC(=O)/C(=C1\Oc2ccc(C(C)(C)C)cc2S1)C(F)(F)F,0.9,-33,-37,2119,-9,-1,3
COc1cccc(NC(=O)CSc2nc3ccccc3c3nc4ccccc4n23)c1,5.4,2,-2,10335,3,0,-7
O=C(Nc1cccc(O)c1)c1cc(-c2ccc3c(c2)OCO3)on1,.,22,58*,5298,.,.,.
NC(=O)C1CCN(C(=O)c2ccc3nc(-c4ccccc4)c(-c4ccccc4)nc3c2)CC1,3.6,1,-7,6247,7,-1,8
CN1CC(C(=O)N[C@]2(C)O[C@@]3(O)C4CCCN4C(=O)C(Cc4ccccc4)N3C2=O)CC2c3cccc4[nH]cc(c34)CC21 (some centres not stated),-0.1&5.8,.,.,.,-3&6,10&4,-8&-1
COc1ccc(NC(C)C(=O)N/N=C/c2c(O)ccc3ccccc23)cc1 (configuration not stated),.,4,-3,3890,.,.,.
COc1ccc(COC(=O)c2ccc(N3CCCC3=O)cc2)cc1F,4.0,5,0,5752,2,8,-2
COc1cccc(NS(=O)(=O)c2ccc3[nH]cc(C(=O)NCCCOC(C)C)c(=O)c3c2)c1,-0.7,-15,-11,2849,.,.,3
CC(NC(=O)c1ccncc1)c1ccc(Br)cc1 (configuration not stated),-3.8,-10,-8,3850,11,-2,1
COc1cccc(NC(=O)C2CCN(S(=O)(=O)c3ccc4[nH]c(=O)ccc4c3)CC2)c1,5.3,-2,-1,4744,1,-2,2
COc1ccc(OCC(O)CNc2ccc(Br)cc2)cc1 (configuration not stated),1.6,0,-15,7177,9,6,-2
c1cncc(CN=C2Nc3ccccc3CS2)c1,3.1,3,-33,3149,1,2,9
COc1ccc(CCNC(=O)Cc2ccc3c(c2)OCO3)cc1OC,3.7,-14,-13,6976,4,-4,10
COCCCn1c(=O)c2ccccc2n(Cc2ccccc2C)c1=O,0.7,6,-19,4228,5,-1,3
CCCCc1nnc(NC(=O)C2CCN(c3ncnc4sc(C)c(C)c34)CC2)s1,4.5,-5,-12,7178,7,3,4
Cc1ccccc1NC(=O)COc1cccc2c1CCNC2=O,0.5,-1,4,?,-1,1,-4
COC(=O)c1sc(N)c(C(=O)OC)c1CSc1nc2sc3c(c2c(=O)n1C)CCC3,5.5,4,-18,9665,10,14,12
COc1cc(C2C(C#N)=C(SC)NC3=C2C(=O)CCC3)ccc1O (configuration not stated),4.5,1,-30,4229,10,1,-4
CC(C)n1c(SCc2ccccc2F)nc2c1c(=O)n(C)c(=O)n2C,-3.9,-4,7,5864,.,.,-1
O=C(N1CCN(c2ccccc2)CC1)C(F)(F)C(F)F,1.8,-1,-5,20656*,-2,8,8
OCC(O)/C=N/Nc1nc(Nc2ccccc2)nc(Nc2ccccc2)n1 (configuration not stated),.,-3,-21,3071,.,.,.
Cc1nnc2ccc(-c3cccc(C(F)(F)F)c3)nn12,6.2,2,-17,5634,6,1,-2
CCOC(=O)c1ccc(NC(=O)CSCCC(=O)O)cc1,3.3,-1,-18,4347,12,14,3
Cc1cc(C)cc(N2C(=O)c3nccnc3C2=O)c1,5.7,-3,1,9399,0,2,11
C#CCN1C(=O)C(O)(CC(=O)c2ccc3c(c2)OCCO3)c2ccccc21 (configuration not stated),1.8,-2,-1,5554,.,.,3
CC(C)C(=O)Nc1nnc(S(=O)(=O)N2CCCCCC2)s1,12,2,-25,4968,5,7,14
O=C(NNC(=O)c1ccccc1F)c1ccc(S(=O)(=O)N2CCCCC2)cc1,6.1,.,-10,4188,15,9,2
CC(=O)Oc1ccccc1C(=O)Nc1ccccc1C(=O)N1CCCCC1,-3.4,2,0,4447,-2,10,6

# Screening data deposited in PubChem BioAssay by several laboratories.
